FGF22 binding: binders of recombinant human FGF22 by thermal shift | Q9HCT0 | SYPRO orange fluorescence; percent of sucrose octasulfate shift, DMSO zero | calls only at 9.99 µM | actives 1.5% (n = 340,000);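 active = melting point raised past a set limit in the mean and every replicate; three in four hits are not shown here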
Target sequence (Q9HCT0 whole entry, looked up): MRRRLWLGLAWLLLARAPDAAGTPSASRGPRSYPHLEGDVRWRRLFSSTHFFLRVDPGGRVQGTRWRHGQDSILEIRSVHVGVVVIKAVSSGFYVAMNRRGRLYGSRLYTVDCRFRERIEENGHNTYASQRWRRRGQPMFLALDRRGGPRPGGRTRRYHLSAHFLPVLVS
Ecoli rRNA inh: inhibitors of bacterial rRNA selective over humanized ribosomes | actives 1.6% (n = 350,000) | GFP signal change (wild-type ribosome), % (test concentration not listed) | E. coli WT GFP vs humanized-ribosome RFP mutants, fluorescence, 24 h; hits give low values; DMSO median 0, no signal -100;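 active = significant combined selectivity score with lowered wild-type GFP, culture density cut under 30%, mutant RFP and density less affected; inactive = any of these conditions unmet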; note: one replicate is shown; some compounds called inactive have numbers as strong as hits
Ecoli rRNA inh OD600: further read-out of Ecoli rRNA inh, marked with its call; OD600 change, %; measured here: OD600 growth;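 optical density of the mix in the first replicate; 0 = DMSO median and -100 = no signal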
Ecoli rRNA inh RFP: also measured in Ecoli rRNA inh; calls as there; RFP signal change, %; measured here: RFP humanized mutant strains;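 first replicate; 0 = DMSO median and -100 = no signal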
An asterisk follows results filed as active; i = inactive; & = joins results of further samples. The list is partial. The share of hits here may be higher or lower than overall.

Value order – FGF22 binding, Ecoli rRNA inh, Ecoli rRNA inh OD600, Ecoli rRNA inh RFP
> C[C@@H]1CCCCO[C@@H](CN(C)C(=O)NC2CCCCC2)[C@H](C)CN([C@H](C)CO)C(=O)c2cc(NC(=O)Nc3ccc4c(c3)OCO4)ccc2O1
 : i, 2, 2, 0.0
> C[C@@H]1CCCCO[C@H](CN(C)S(=O)(=O)c2ccc(F)cc2)[C@H](C)CN([C@@H](C)CO)C(=O)c2cc(NS(=O)(=O)c3cn(C)cn3)ccc2O1
 : i, -5, 5, 0.0
> C[C@@H]1CN([C@H](C)CO)S(=O)(=O)c2ccc(C3=CCCC3)cc2O[C@H]1CN(C)C(=O)C1CCCCC1
 : i, -7, -28, 3.9
> CC(C)NC(=O)N(C)C[C@@H]1Oc2cc(C#Cc3ccccn3)ccc2S(=O)(=O)N([C@H](C)CO)C[C@@H]1C
 : i, -1, 12, -1.2
> N#C[C@@H]1[C@@H](c2ccccc2C2=CCCCC2)[C@@H](CO)N1C(=O)C1CCOCC1
 : i, 1, 20, -1.1
> Cc1noc(C)c1S(=O)(=O)Nc1ccc2c(c1)C(=O)N([C@H](C)CO)C[C@H](C)[C@@H](CN(C)C(=O)Nc1ccc(F)cc1)OCCCC[C@@H](C)O2
 : i, 2, 4, 0.3
> COc1ccc2c3c(n(C)c2c1)[C@H](CO)N(C(=O)c1ccccc1)CC31CN(Cc2ccccc2OC)C1
 : i, -2, -22, 10
> Cc1noc(C)c1NC(=O)N(C)C[C@H]1Oc2ccc(N(C)C)cc2CC(=O)N([C@H](C)CO)C[C@@H]1C
 : i, 3, 2, -1.1
> C[C@@H]1CN([C@@H](C)CO)C(=O)Cc2cc(NC(=O)Nc3ccc(F)cc3)ccc2O[C@@H]1CN(C)Cc1ccccc1
 : i, 3, -43, 13
> COc1ccc(S(=O)(=O)Nc2ccc3c(c2)C(=O)N([C@@H](C)CO)C[C@H](C)[C@@H](CN(C)S(=O)(=O)c2ccc(F)cc2)OCCCC[C@@H](C)O3)cc1
 : i, 0, 6, -0.1
> CCS(=O)(=O)N1Cc2cc(C(=O)N(C)C)nc(-c3cccc(-c4ccc(C#N)cc4)c3)c2[C@@H]1CCO
 : i, 2, 2, 0.7
> C[C@@H]1CN([C@@H](C)CO)S(=O)(=O)c2ccc(C#Cc3cccnc3)cc2O[C@@H]1CN(C)C(=O)C1CC1
 : i, 0, 1, -1.5
> Cc1ccc(S(=O)(=O)N(C)C[C@H]2Oc3ccc(NS(=O)(=O)c4ccccc4)cc3CC(=O)N([C@H](C)CO)C[C@@H]2C)cc1
 : i, 1, -9, 3.2
> C[C@@H]1CCCCO[C@@H](CN(C)C)[C@@H](C)CN([C@@H](C)CO)C(=O)c2cc(NS(C)(=O)=O)ccc2O1
 : i, 1, 2, -1.2
> CN(C)CC(=O)N1[C@@H](CO)[C@@H](c2ccccc2)C12CN(Cc1cc(F)ccc1F)C2
 : i, -2, -6, 1.9
> O=C(C[C@H]1CC[C@@H]2[C@H](COC[C@@H](O)CN2S(=O)(=O)c2ccc(Cl)cc2)O1)NCc1ccncn1
 : i, 2, -6, 0.7
> CCCNC(=O)C[C@H]1CC[C@@H]2[C@H](COc3ccc(NC(=O)NC(C)C)cc3C(=O)N2C)O1
 : i, 3, 0, 0.2
> C[C@H](CO)N1C[C@H](C)[C@H](CN(C)Cc2ccc(C(F)(F)F)cc2)Oc2ccc(NC(=O)Cc3ccccc3)cc2C1=O
 : i, -4, -30, 10
> C[C@H](CO)N1C[C@H](C)[C@@H](CN(C)CC2CC2)Oc2ccc(NC(=O)CCC(F)(F)F)cc2CC1=O
 : i, -1, 6, -1.0
> CO[C@H]1CN(C)C(=O)c2cc(NS(=O)(=O)c3c(C)noc3C)ccc2OC[C@H](C)NC[C@H]1C
 : i, 1, -4, -0.2
> COc1ccc(NC(=O)N(C)C[C@H]2Oc3ncc(-c4cccnc4)cc3C(=O)N([C@@H](C)CO)C[C@@H]2C)cc1
 : i, 2, 1, -2.9
> CC(=O)NC1CCCCN(C)C1=O (stereo not drawn)
 : i, 7, 5, 2.9
> O=C(c1ccccc1)N1C[C@H]2[C@@H](c3ccccc31)[C@@H](CO)N2C(=O)c1cccc(F)c1
 : i, 4, 5, -0.8
> C[C@@H](NC(=O)C[C@@H]1C[C@H]2c3cc(NC(=O)Nc4ccccc4F)ccc3O[C@H]2[C@H](CO)O1)c1ccccc1
 : i, 3, 6, 0.1
> C[C@@H]1CCCCO[C@@H](CN(C)C(=O)NC2CCCCC2)[C@@H](C)CN([C@@H](C)CO)C(=O)c2cc(NC(=O)Nc3ccc4c(c3)OCO4)ccc2O1
 : i, 1, 3, 1.2
> NCC[C@H]1CC[C@H](NS(=O)(=O)Cc2ccccc2)[C@@H](CO)O1
 : i, 0, 4, 1.7
> COc1ccc(NC(=O)Nc2ccc3c(c2)C(=O)N([C@H](C)CO)C[C@@H](C)[C@H](CN(C)CC2CCCCC2)O3)cc1
 : i, 6, -2, -0.4
> Cc1ccccc1-c1ccc([C@H]2[C@H](CO)N3C(=O)CN(C(=O)NC4CCCC4)C[C@@H]23)cc1
 : i, 0, -4, -1.8
> COc1ccc(S(=O)(=O)Nc2ccc3c(c2)C(=O)N([C@H](C)CO)C[C@@H](C)[C@@H](CN(C)C(=O)CCC(F)(F)F)OCCCC[C@H](C)O3)cc1
 : i, 1, -4, -2.0
> CN1C(=O)c2cc(NC(=O)c3cnccn3)ccc2OC[C@@H]2O[C@@H](CC(=O)N[C@@H]3CCN(Cc4ccccc4)C3)CC[C@H]21
 : i, 0, 15, -2.1
> C[C@@H]1CCCCO[C@H](CN(C)S(=O)(=O)c2cn(C)cn2)[C@@H](C)CN([C@@H](C)CO)C(=O)c2cc(NC(=O)c3ccncc3)ccc2O1
 : i, 4, 3, 0.8
> C[C@@H]1CCCCO[C@H](CN(C)Cc2ccc(Cl)c(Cl)c2)[C@H](C)CN([C@@H](C)CO)C(=O)c2cc(NC(=O)CCC(F)(F)F)ccc2O1
 : i, -2, -1, 3.5
> COc1ccc(S(=O)(=O)N(C)C[C@H]2Oc3ccc(NC(=O)c4ccncc4)cc3C(=O)N([C@H](C)CO)C[C@H]2C)cc1
 : i, 3, 9, 1.3
> CN(C)CC(=O)N1[C@H](C#N)[C@@H](c2ccccc2-c2ccccc2F)[C@H]1CO
 : i, 9, 9, 0.4
> O=C(N[C@@H]1CC[C@H](CC(=O)N2CCc3ccccc3C2)O[C@H]1CO)C1CC1
 : i, -1, -4, 0.2
> O=C(c1ccc2c(c1)OCO2)N1CCCCN2[C@@H](CO)[C@@H](c3ccc(-c4ccccc4)cc3)[C@@H]2C1
 : i, -20, -54, 2.4
> CNC(=O)C[C@H]1CC[C@@H]2[C@H](COC[C@H](O)CN2Cc2ccccc2F)O1
 : i, 2, 15, -1.5
> CCCN(C)C[C@@H]1OCCCC[C@@H](C)Oc2ccc(NC(=O)Nc3ccc(C(F)(F)F)cc3)cc2C(=O)N([C@H](C)CO)C[C@H]1C
 : i, -3, 9, -0.9
> C[C@H]1CN([C@@H](C)CO)C(=O)c2c(c3ccccc3n2C)-c2ccccc2CO[C@@H]1CN(C)Cc1cccnc1
 : i, -5, -9, 12
> C[C@H]1CN([C@@H](C)CO)C(=O)c2cc(NS(C)(=O)=O)ccc2O[C@H]1CN(C)Cc1ccncc1
 : i, -1, 5, 1.9
> Cc1ccc(S(=O)(=O)Nc2ccc3c(c2)C(=O)N([C@H](C)CO)C[C@H](C)[C@H](CN(C)S(=O)(=O)c2cn(C)cn2)O3)cc1
 : i, 3, 4, -0.2
> Cc1cccc(S(=O)(=O)N(C)C[C@H]2OCc3ccccc3-c3c(n(C)c4ccccc34)C(=O)N([C@H](C)CO)C[C@@H]2C)c1
 : i, 2, 4, 2.3
> O=[N+]([O-])c1ccc(COc2ccccc2CO)cc1
 : i, 2, 3, -7.2
> CN1C(=O)c2cc(NC(=O)c3cccc(F)c3)ccc2OC[C@@H]2O[C@H](CC(=O)NC3CCC3)CC[C@H]21
 : i, -1&-4, 1&-5, -0.3&0.7
> CC(C)NC(=O)N(C)C[C@H]1OCCCC[C@H](C)Oc2ccc(NC(=O)Nc3ccc4c(c3)OCO4)cc2C(=O)N([C@@H](C)CO)C[C@H]1C
 : i, 0, -6, 0.1
> COc1ccc(CN2C[C@H](O)COC[C@H]3O[C@H](CC(=O)N4CCc5ccccc5C4)CC[C@@H]32)cc1
 : i, 3, 1, -3.2
> CCCNC(=O)C[C@H]1CC[C@H]2[C@@H](COc3ccc(NC(=O)CC)cc3C(=O)N2C)O1
 : i, 4, 15, -1.2
> C[C@@H]1CN([C@H](C)CO)C(=O)c2cccc(NC(=O)c3ccc(-c4nccs4)cc3)c2O[C@H]1CN(C)Cc1ccc(C(=O)O)cc1
 : i, 1, 0, -1.6
> COc1cccc(S(=O)(=O)N2C[C@H](O)COC[C@H]3O[C@@H](CC(=O)N4CCN(c5ccccc5)CC4)CC[C@@H]32)c1
 : i, -6, -3, 3.0
> O=C1CCCn2cc(nn2)COC[C@@H](c2ccccc2)N1
 : i, 0, 4, -0.9

Next records.
Value order – FGF22 binding, Ecoli rRNA inh, Ecoli rRNA inh OD600, Ecoli rRNA inh RFP
> C[C@H]1CN([C@@H](C)CO)C(=O)c2cc(NC(=O)CCCN(C)C)ccc2O[C@@H]1CN(C)Cc1ccccc1
 : i, 5, 6, 0.0
> CCC(=O)Nc1ccc2c(c1)OC[C@H](C)N(C(=O)C1CCC1)C[C@H](C)[C@@H](OC)CN(C)C2=O
 : i, -1, -2, -0.7
> C[C@@H]1CN([C@@H](C)CO)C(=O)c2cccc(NS(=O)(=O)c3ccccc3)c2O[C@H]1CN(C)C(=O)Nc1ccccc1
 : i, -5, 0, -2.6
> C/C=C/c1cnc2c(c1)C(=O)N([C@H](C)CO)C[C@H](C)[C@H](CN(C)Cc1cncnc1)O2
 : i, 5, 2, -0.4
> CO[C@H]1CN(C)C(=O)c2cc(NC(=O)NC3CCCCC3)ccc2OC[C@H](C)N(CCc2ccccc2)C[C@@H]1C
 : i, -9, -6, 9.4
> OC[C@@H]1[C@@H](c2ccc(/C=C/c3ccccc3)cc2)[C@H]2CN(Cc3ccncc3)CCCCN12
 : i, 1, 5, 16
> Nc1ccn([C@@H]2O[C@H](C(=O)N[C@H](Cc3ccccc3)C(=O)N3CCSC3)[C@@H](O)[C@H]2O)c(=O)n1
 : i, 15, 15, 1.1
> C[C@H]1CN([C@@H](C)CO)C(=O)c2cc(-c3ccccc3)cnc2O[C@H]1CN(C)Cc1ccccc1
 : i, 3, 8, 0.8
> CN1C(=O)c2cc(NC(=O)C3CC3)ccc2OC[C@H]2O[C@@H](CC(=O)Nc3ccc(F)cc3)CC[C@@H]21
 : i, -4, -7, 0.9
> CC=Cc1ccc2n(c1=O)C[C@@H]1[C@@H](CO)[C@H](C(=O)N[C@@H](C)c3ccccc3)[C@H]2N1Cc1ccncc1 (mixture of isomers)
 : i, 4, -3, -1.8
> C[C@@H]1CN([C@H](C)CO)C(=O)Cc2cc(NC(=O)Nc3ccc(C(F)(F)F)cc3)ccc2O[C@H]1CN(C)Cc1ccc(-c2ccccc2)cc1
 : i, 5, 9, 0.1
> C[C@@H]1CCCCO[C@@H](CN(C)C(=O)c2ccccc2)[C@@H](C)CN([C@@H](C)CO)C(=O)c2cc(NC(=O)Nc3ccc(C(F)(F)F)cc3)ccc2O1
 : i, -2, 4, -1.3
> C/C=C/c1ccc(C2[C@@H]3CN(S(=O)(=O)c4ccccc4F)C[C@H]2N3)cc1 (stereo partly drawn)
 : i, -2, -22, -2.3
> C[C@@H]1CN([C@@H](C)CO)C(=O)c2cc(NS(C)(=O)=O)ccc2O[C@H]1CN(C)C(=O)Nc1ccc(F)cc1
 : i, 3, 1, -0.9
> O=C(NCc1ccccc1)[C@H]1CCCN1C(=O)[C@H]1CCCN1C(=O)c1cccs1
 : i, 19, 21, 4.8
> CCCC(=O)N1CCC2(CC1)CN(Cc1ccccc1F)[C@H](CO)c1c2c2ccc(OC)cc2n1C
 : i, -4, -10, -0.2
> O=C(C[C@@H]1C[C@H]2c3cc(NC(=O)c4ccc5c(c4)OCO5)ccc3O[C@H]2[C@@H](CO)O1)NCc1ccc(Cl)cc1
 : i, 2, 1, 8.7
> CO[C@H]1CN(C)C(=O)c2cc(NC(=O)NC(C)C)ccc2OC[C@H](C)N(Cc2ccccn2)C[C@@H]1C
 : i, 6, 5, 0.2
> O=S(=O)(c1ccc(F)cc1)N1C[C@@H]2[C@H](c3ccccc31)[C@H](CO)N2Cc1ccccc1Cl
 : i, -13, -45, -1.7

Reprinted at random: six compounds from above.
Value order – FGF22 binding, Ecoli rRNA inh, Ecoli rRNA inh OD600, Ecoli rRNA inh RFP
> CO[C@H]1CN(C)C(=O)c2cc(NC(=O)NC(C)C)ccc2OC[C@H](C)N(Cc2ccccn2)C[C@@H]1C
 : i, 6, 5, 0.2
> C/C=C/c1ccc(C2[C@@H]3CN(S(=O)(=O)c4ccccc4F)C[C@H]2N3)cc1 (stereo partly drawn)
 : i, -2, -22, -2.3
> C[C@@H]1CN([C@H](C)CO)C(=O)Cc2cc(NC(=O)Nc3ccc(C(F)(F)F)cc3)ccc2O[C@H]1CN(C)Cc1ccc(-c2ccccc2)cc1
 : i, 5, 9, 0.1
> O=C(NCc1ccccc1)[C@H]1CCCN1C(=O)[C@H]1CCCN1C(=O)c1cccs1
 : i, 19, 21, 4.8
> C[C@@H]1CCCCO[C@@H](CN(C)C(=O)c2ccccc2)[C@@H](C)CN([C@@H](C)CO)C(=O)c2cc(NC(=O)Nc3ccc(C(F)(F)F)cc3)ccc2O1
 : i, -2, 4, -1.3
> C[C@@H]1CN([C@@H](C)CO)C(=O)c2cc(NS(C)(=O)=O)ccc2O[C@H]1CN(C)C(=O)Nc1ccc(F)cc1
 : i, 3, 1, -0.9
